Screening data deposited in PubChem by several laboratories.
HNF4A DNA FP – change in binding of human HNF4 alpha to DNA; 0.3% of 360,000 active; activity change, % at 10 µM; P41235; HNF4a-FITC DNA binding, fluorescence polarization, 1 h; in the data active = activity change above about 30%, passing the limit was not always enough;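 also: controls were the assay level and a saturating level of protein; the project sought stronger binding though the title names inhibitors; some compounds called inactive have numbers as strong as hits; positive values seem to mean higher polarization but the record does not say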
UCH37 DUB inh – human UCH37 deubiquitinating enzyme inhibition | inhibition, % (no concentration beside the values) | 0.33% of 330,000 active | Q9Y5K5 | AID 588478 | purified proteasome/UCH37, Ub-AMC cleavage fluorescence;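 active = mean of two replicates above 20%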;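 also: 0% = compound-free wells with enzyme and 100% = wells lacking proteasome; stock transfer was 100 nL into about 20 µL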
Target sequence (Q9Y5K5 whole entry, looked up): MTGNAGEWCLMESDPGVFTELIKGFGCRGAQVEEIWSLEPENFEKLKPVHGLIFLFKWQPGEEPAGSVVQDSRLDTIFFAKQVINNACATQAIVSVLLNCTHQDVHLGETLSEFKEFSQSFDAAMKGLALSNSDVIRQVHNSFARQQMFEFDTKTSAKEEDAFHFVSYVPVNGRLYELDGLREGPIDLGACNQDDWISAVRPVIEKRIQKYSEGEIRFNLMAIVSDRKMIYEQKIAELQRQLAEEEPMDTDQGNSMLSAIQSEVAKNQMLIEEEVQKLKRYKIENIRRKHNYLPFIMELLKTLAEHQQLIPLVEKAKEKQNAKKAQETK
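Reagent: Ub-AMC substrate; assay system: Proteasome-associated human UCH37 deubiquitinase; controls: no-proteasome and no-compound wells; read-out: % inhibition of Ub-AMC cleavage fluorescence; timing: 30 min preincubation with enzyme, 25 min cleavage at room temperature; signal: AMC fluorescence from Ub-AMC cleavage, excitation 355 nm, emission 460 nm; buffer or medium: Tris-HCl pH 7.4 plus ovalbumin, ATP-MgCl2, DTT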
ALR H2O2 inh – inhibitors of human sulfhydryl oxidase ALR; P55789; purified ALR, DTT oxidation, H2O2 HRP-luminol luminescence; inhibition, % (concentration not given with the values); 3.8% of 290,000 active; AID 485317;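 active = mean and each replicate at 75% or more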;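 also: stock transfer was 7.5 nL into about 7.5 µL; 0% = neutral wells and 100% = wells with inactivated enzyme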
Target sequence (P55789 whole entry, looked up): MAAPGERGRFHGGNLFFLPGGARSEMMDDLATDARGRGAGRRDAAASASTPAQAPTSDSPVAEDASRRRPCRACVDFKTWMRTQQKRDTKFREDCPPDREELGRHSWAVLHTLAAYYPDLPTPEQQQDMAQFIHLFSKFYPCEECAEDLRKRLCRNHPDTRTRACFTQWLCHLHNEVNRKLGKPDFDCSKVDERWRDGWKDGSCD
FGF22 binding – shifts melting point of recombinant human FGF22 | Q9HCT0 | recombinant FGF22 thermal shift, SYPRO orange fluorescence; percent of sucrose octasulfate shift, DMSO zero | calls only at 9.99 µM | 1.5% of 340,000 active;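 active = melting point raised past a set limit in the mean and every replicate; three in four hits are not shown here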
Beta2AR agonist – human beta-2 adrenergic receptor agonism by FAP. 0.43% of 340,000 active. response, % (no concentration beside the values). Am2.2-beta2AR cells, FAP receptor internalization, flow cytometry; reference of the scale not given here. P07550;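 active = response above a set limit, near 3 SD of response in nonfluorescent compounds, cut at about 42% in these data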;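 also: stock transfer was 100 nL into about 11 µL; a reference agonist was the positive control; negative values mostly stem from fluorescent compounds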
Target sequence (P07550 whole entry, looked up): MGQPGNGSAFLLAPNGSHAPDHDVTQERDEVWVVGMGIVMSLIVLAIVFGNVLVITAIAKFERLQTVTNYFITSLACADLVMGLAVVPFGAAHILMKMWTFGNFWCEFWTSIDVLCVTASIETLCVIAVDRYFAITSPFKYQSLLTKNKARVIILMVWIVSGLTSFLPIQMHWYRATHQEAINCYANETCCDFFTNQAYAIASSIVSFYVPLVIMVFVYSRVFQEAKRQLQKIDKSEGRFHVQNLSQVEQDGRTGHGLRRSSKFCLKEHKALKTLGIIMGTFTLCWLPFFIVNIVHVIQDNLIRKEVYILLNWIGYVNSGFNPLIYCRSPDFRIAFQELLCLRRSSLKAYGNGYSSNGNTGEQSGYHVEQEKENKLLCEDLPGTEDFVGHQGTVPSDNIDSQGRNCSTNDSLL
Ecoli rRNA inh – selective bacterial rRNA inhibition in E. coli. GFP signal change (wild-type ribosome), % (no concentration beside the values). AID 720706. E. coli WT GFP vs humanized-ribosome RFP mutants, fluorescence, 24 h; hits give low values; DMSO median 0, no signal -100. 1.6% of 350,000 active;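 active = significant combined selectivity score with lowered wild-type GFP, culture density cut under 30%, mutant RFP and density less affected; inactive = any of these conditions unmet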; also: one replicate is shown; some compounds called inactive have numbers as strong as hits
E coli growth – inhibitors of Escherichia coli growth; 0.21% of 330,000 active; AID 1053175; OD600 absorbance (concentration not given with the values); OD600, 23 h; hits give low values;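 active = OD600 absorbance below the run mean of sample wells minus 3.6 SD, in any replicate, cut at about 0.56 in these data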;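 also: stock transfer was 300 nL into about 60 µL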
Ecoli rRNA inh OD600 – second read-out of Ecoli rRNA inh, no call of its own (marks repeat the call); OD600 change, %; measured here: OD600 growth;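 optical density of the mix in the first replicate; 0 = DMSO median and -100 = no signal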
Ecoli rRNA inh RFP – recorded beside Ecoli rRNA inh, whose call it bears; RFP signal change, %; measured here: RFP humanized mutant strains;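 first replicate; 0 = DMSO median and -100 = no signal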
An asterisk follows results filed as active; i = inactive; / = no result given; + = active, no number.

HNF4A DNA FP	UCH37 DUB inh	ALR H2O2 inh	FGF22 binding	Beta2AR agonist	Ecoli rRNA inh	Ecoli rRNA inh OD600	Ecoli rRNA inh RFP	E coli growth	structure
1.4	/	-5	/	1	/	/	/	0.67	Cc1ccc2c(n1)sc1c(N)ncnc12
-4.4	4.3	24	i	-10	12	5	2.0	0.68	Cn1cc(C(=O)N2CCN(c3ccccc3)CC2)c(=O)c2cc(S(=O)(=O)N3CCOCC3)ccc21
-1.4	-1.3	-6	/	-2	/	/	/	0.7	COc1cc(CNCC(C)C)cc(Br)c1OCC(=O)Nc1ccccc1
-4.0	2.1	1	/	2	27	20	1.9	0.75	COc1ccc(OCC(N)=O)cc1
3.5	4.1	/	i	3	1	0	-0.4	0.64	CCc1nnc(NS(=O)(=O)c2ccc(NC(=O)Nc3ccc(OC)cc3)cc2)s1
1.2	-6.7	-2	/	-2	/	/	/	0.71	COC(=O)c1ccccc1COn1c(=O)c[n+]([O-])c2ccccc21
-3.4	1.4	/	/	-8	/	/	/	0.73	Cc1nn(-c2ncc(C(F)(F)F)cc2Cl)c(=O)n1-c1ccccc1Cl
3.6	-1.1	37	/	-2	/	/	/	0.66	COc1cc(-c2n[nH]c(=S)n2-c2cc(C(F)(F)F)ccc2Cl)cc(OC)c1OC
4.2	0.8	1	i	-2	-1	-4	3.7	0.67	Cc1cccc(C)c1N(CC(=O)NCc1ccco1)C(=O)CNS(=O)(=O)c1ccc(F)cc1
3.1	-29	5	i	18	-12	-14	4.6	0.69	COc1ccc(-c2cc(C(=O)N3CCN(c4ccccc4O)CC3)c3ccccc3n2)cc1OC
4.7	-1.1	95*	i	-3	-9	-11	-3.4	0.77	CC1=CC(=C(C#N)c2nc3ccccc3s2)C=C(C)N1CC1CCCO1 (stereo unspecified)
-0.7	-0.9	-19	/	3	/	/	/	0.78	Cc1c(NC(=O)CSc2nnc(-c3cccc(Cl)c3)o2)c(=O)n(-c2ccccc2)n1C
-0.2	0.8	25	i	3	-16	-8	8.0	0.67	COc1ccc(Cc2nnc(SCC(=O)c3ccc4c(c3)OCO4)o2)cc1
128	16	-17	i	-154	101	-3	11	0.67	COC(=O)Cn1c(C)c(/C=C/c2cc[n+](C)cc2)c2ccccc21
0.8	-8.1	-4	i	3	8	0	-1.3	0.69	NC(=O)c1ccsc1NC(=O)COC(=O)c1cc(=O)[nH]c2ccccc12
-2.2	3.7	-22	i	2	2	15	1.5	0.65	O=C(CN(Cc1ccccc1Cl)C(=O)c1csnn1)NCc1ccccc1
-2.0	/	/	i	/	24	23	-2.8	/	COc1cccc(CN2CCC(C(=O)NC(c3ccc4c(c3)OCO4)c3ccccn3)CC2)c1 (stereo unspecified)
3.4	-1.1	-23	/	0	/	/	/	0.71	CC(C)N(CCNC(=O)C1CCC(=O)N1Cc1ccc(F)cc1)Cc1ccccc1 (stereo unspecified)
0.3	-0.2	0	i	-3	-1	4	2.6	0.67	COc1ccc(CNC(=O)C2CCCN(S(=O)(=O)N3CC(C)CC(C)C3)C2)c(OC)c1 (stereo unspecified)
-3.6	-3.9	8	i	-7	3	6	1.2	0.67	CCCCn1c(N)c(N(CCOC)C(=O)CN2C(=O)C3CCCCC3C2=O)c(=O)[nH]c1=O (stereo unspecified)

Random excerpt: 5 compounds from above
HNF4A DNA FP	UCH37 DUB inh	ALR H2O2 inh	FGF22 binding	Beta2AR agonist	Ecoli rRNA inh	Ecoli rRNA inh OD600	Ecoli rRNA inh RFP	E coli growth	structure
0.3	-0.2	0	i	-3	-1	4	2.6	0.67	COc1ccc(CNC(=O)C2CCCN(S(=O)(=O)N3CC(C)CC(C)C3)C2)c(OC)c1 (stereo unspecified)
-4.4	4.3	24	i	-10	12	5	2.0	0.68	Cn1cc(C(=O)N2CCN(c3ccccc3)CC2)c(=O)c2cc(S(=O)(=O)N3CCOCC3)ccc21
1.4	/	-5	/	1	/	/	/	0.67	Cc1ccc2c(n1)sc1c(N)ncnc12
-4.0	2.1	1	/	2	27	20	1.9	0.75	COc1ccc(OCC(N)=O)cc1
-1.4	-1.3	-6	/	-2	/	/	/	0.7	COc1cc(CNCC(C)C)cc(Br)c1OCC(=O)Nc1ccccc1

The listing picks up, starting 3 compounds before the break.
HNF4A DNA FP	UCH37 DUB inh	ALR H2O2 inh	FGF22 binding	Beta2AR agonist	Ecoli rRNA inh	Ecoli rRNA inh OD600	Ecoli rRNA inh RFP	E coli growth	structure
3.4	-1.1	-23	/	0	/	/	/	0.71	CC(C)N(CCNC(=O)C1CCC(=O)N1Cc1ccc(F)cc1)Cc1ccccc1 (stereo unspecified)
0.3	-0.2	0	i	-3	-1	4	2.6	0.67	COc1ccc(CNC(=O)C2CCCN(S(=O)(=O)N3CC(C)CC(C)C3)C2)c(OC)c1 (stereo unspecified)
-3.6	-3.9	8	i	-7	3	6	1.2	0.67	CCCCn1c(N)c(N(CCOC)C(=O)CN2C(=O)C3CCCCC3C2=O)c(=O)[nH]c1=O (stereo unspecified)
3.0	2.0	-3	i	7	-28	-33	1.2	0.71	CCOP(=O)(OCC)C(Nc1ccc([N+](=O)[O-])cc1)c1ccc(Cl)cc1 (stereo unspecified)
5.3	2.7	-24	i	-8	9	8	-0.6	0.62	O=C(Nc1ccccc1F)Oc1cccc(OC(=O)Nc2ccccc2F)c1
-2.5	2.2	3	i	2	14	12	4.7	0.7	CCCCC(C(=O)NC(C)c1ccccc1)C(=O)NC(C)c1ccccc1 (stereo unspecified)
-2.1	3.1	-5	i	-7	4	5	3.0	0.71	CCOc1ccc(NC(=O)CN(C)C(=O)C2(c3ccccc3)CC2)cc1OCC
0.4	2.2	22	/	2	24	14	4.3	0.67	Cc1ccc(N2C(=O)CC(Sc3ccccc3C(=O)O)C2=O)c([N+](=O)[O-])c1 (stereo unspecified)
4.7	0.9	3	i	1	11	6	-0.3	0.61	Cc1ccc(C(=O)NCCCNC(=O)c2ccc(C)nc2)cc1
-0.8	4.5	99*	/	6	-1	0	0.7	0.69	Oc1ccc(N2CCN(C(c3cccnc3)c3nnnn3Cc3ccccc3)CC2)cc1 (stereo unspecified)
-0.8	-0.6	-12	/	6	/	/	/	0.72	Clc1ccc2nc(N3CCN(c4ccccc4)CC3)sc2c1
-0.7	1.9	-9	/	3	/	/	/	0.69	CCOC(=O)c1nnn(-c2nonc2N)c1CN(C)C1CCCCC1
0.8	3.0	70	i	-7	-60	-77	-18	0.69	CCc1nnc(NS(=O)(=O)c2ccc(NCc3cc(Cl)cc(Cl)c3O)cc2)s1
0.5	5.4	-6	/	0	/	/	/	0.71	C=CCNC(=O)C1CC(=O)N(c2ccc(OCC(=O)Nc3ccc(OC)cc3)cc2)C1 (stereo unspecified)
-4.7	4.6	-2	/	-10	/	/	/	0.69	CCCOC(=O)c1ccc(NC(=O)CCOc2ccccc2)cc1
0.6	3.0	-1	i	6	-1	1	-7.8	0.68	Cc1cc(-c2ccccc2)c(C#N)c(=S)[nH]1
-1.0	3.1	/	i	-6	1	20	-0.7	0.67	N/C(CCS(=O)(=O)c1ccc(Cl)cc1)=N\OC(=O)c1ccc(Cl)cc1
3.3	/	/	i	/	7	14	7.6	/	CCOC(=O)[C@]12CCCC=C1N(Cc1ccc3c(c1)OCO3)C(=O)[C@H](CC(=O)NCCCCc1ccccc1)C2
-2.0	/	/	i	/	-1	-8	3.0	/	CC(C)=CCn1c2ccc(NC(=O)NCc3ccc(F)cc3)cc2c(=O)n1C
2.8	5.6	-10	i	4	0	-1	-2.0	0.64	COc1ccc(CCNC(=O)CNS(=O)(=O)c2ccc(Cl)cc2)cc1
1.1	2.0	1	/	-3	/	/	/	0.71	COc1ccc(CCNC(=O)C(C)OC(=O)c2ccco2)cc1OC (stereo unspecified)
-1.7	7.3	-7	i	3	2	4	-2.3	0.69	O=[N+]([O-])c1ccc2[nH]c(O)c(N=Nc3ccc(F)cc3)c2c1
0.5	5.0	0	/	-13	/	/	/	0.73	O=C(CN1C(=O)CC(c2ccccc2)=Nc2ccccc21)NCc1ccccc1
6.4	-3.2	1	i	5	1	-1	-1.3	0.66	CC(OC(=O)c1ccc2ncsc2c1)C(=O)Nc1cccc(Cl)c1 (stereo unspecified)
9.1	-3.6	97*	+	42	/	/	/	0.69	COc1ccc(/C=C/C(=O)c2ccc(O)cc2)cc1
4.3	3.0	11	/	-9	/	/	/	0.73	Cc1ccc(NC(=S)NNC(=S)NCc2ccccc2)cc1
3.3	/	/	i	i	-19	-34	-2.3	/	CC(C)OC(=O)c1ccc(NCc2cc(O)ccc2O)cc1Cl
-5.1	-0.1	15	i	-3	4	-2	0.5	0.7	CC1CN(C(=O)/C=C/c2ccc(SC(F)F)cc2)CC(C)O1 (stereo unspecified)
6.9	4.7	3	i	11	5	4	-2.9	0.72	CCOc1ccc(C(=O)Oc2cc(C)[nH]c(=O)c2[N+](=O)[O-])cc1
5.0	0.3	4	i	0	4	2	-8.1	0.63	CC1=C(C(=O)Nc2ccccc2)C(c2ccco2)n2ncnc2N1 (stereo unspecified)
3.8	6.6	-8	i	0	10	12	1.2	0.73	NC(=O)C1CCN(C(=O)C(=O)c2cn(CC(=O)N3CCCC3)c3ccccc23)CC1
-1.0	/	/	i	/	7	-2	2.2	/	CCOC(=O)C1(C)CCCN(C(=O)COc2ccccc2)C1 (stereo unspecified)
-3.5	/	99*	/	8	/	/	/	/	CCN=c1scc(C)n1/N=C/c1ccc(O)c(O)c1O
1.5	8.6	-4	i	-5	18	12	0.2	0.7	O=[N+]([O-])c1ccc(O)c(CN2CCCCCC2)c1
1.9	/	/	i	-6	1	11	2.8	/	CCCCN1CC(COC)Oc2cccc(F)c2S1(=O)=O (stereo unspecified)
-2.1	/	25	/	4	/	/	/	/	COc1ccc(C(=O)N/N=C(/C)c2cccc(NC(=O)C(F)(F)F)c2)cc1
1.7	3.7	99*	i	-6	/	/	/	0.74	Cc1ccc(Nc2nnc(SCc3cc(=O)n4cc(C)ccc4n3)s2)cc1
-0.1	2.5	77*	i	3	-8	-5	-2.1	/	COC(=O)C1=C(C(=O)OC)[C@@H]2N(C)c3ccc(OC)cc3[C@@]23C[C@@H](C(=O)OC)N=C3N1
1.0	/	-2	i	-8	-11	-5	-5.4	/	COc1ccc(NC(=S)N(Cc2ccc(C(=O)O)cc2)Cc2ccc(OC)c(OC)c2)cc1
0.7	2.6	4	/	3	/	/	/	0.78	Cc1ccc(NC(=O)CN(C)S(=O)(=O)c2cccc3nsnc23)cc1
1.1	/	/	i	/	-1	-24	4.2	/	CC(C)c1ccc(CC(=O)N2CCC2(C)C(=O)Nc2cccc(C#N)c2)cc1 (stereo unspecified)
1.5	7.4	-12	/	-12	/	/	/	0.64	Cn1c(NC(=O)c2ccc(Cl)s2)cc(=O)n(C)c1=O
2.7	2.6	-5	/	-1	/	/	/	0.71	Cc1ccc(-c2cc(C(=O)Nc3ccc(S(=O)(=O)Nc4nccs4)cc3)c3ccccc3n2)c(C)c1
-2.1	0.9	18	/	0	/	/	/	0.71	O=C(Nc1ccccc1F)c1ccc(COc2ccc(Cl)cc2Cl)o1
-0.4	12	/	/	0	/	/	/	0.7	COC(=O)c1[nH]c(C)c(/C(O)=C2\C(=O)C(=O)N(CCN(C)C)C2c2cccc(OC)c2OC)c1C (stereo unspecified)

Some of the compounds tested. The share of hits here may be higher or lower than overall.
